TRPV1 potentiator: human TRPV1 potentiation; Q8NER1; TRPV1-expressing cells, Fluo-8 calcium influx, capsaicin EC20 potentiation; host cell line not named in the record; control for the full effect not named in the record; potentiation, % at 8.33 µM; actives 0.02% (n = 320,000); active means potentiation above 80%; inconclusive means 30% to 80%; inactive means below 30%; also: 0% is about no effect
Target sequence (Q8NER1 whole entry, looked up): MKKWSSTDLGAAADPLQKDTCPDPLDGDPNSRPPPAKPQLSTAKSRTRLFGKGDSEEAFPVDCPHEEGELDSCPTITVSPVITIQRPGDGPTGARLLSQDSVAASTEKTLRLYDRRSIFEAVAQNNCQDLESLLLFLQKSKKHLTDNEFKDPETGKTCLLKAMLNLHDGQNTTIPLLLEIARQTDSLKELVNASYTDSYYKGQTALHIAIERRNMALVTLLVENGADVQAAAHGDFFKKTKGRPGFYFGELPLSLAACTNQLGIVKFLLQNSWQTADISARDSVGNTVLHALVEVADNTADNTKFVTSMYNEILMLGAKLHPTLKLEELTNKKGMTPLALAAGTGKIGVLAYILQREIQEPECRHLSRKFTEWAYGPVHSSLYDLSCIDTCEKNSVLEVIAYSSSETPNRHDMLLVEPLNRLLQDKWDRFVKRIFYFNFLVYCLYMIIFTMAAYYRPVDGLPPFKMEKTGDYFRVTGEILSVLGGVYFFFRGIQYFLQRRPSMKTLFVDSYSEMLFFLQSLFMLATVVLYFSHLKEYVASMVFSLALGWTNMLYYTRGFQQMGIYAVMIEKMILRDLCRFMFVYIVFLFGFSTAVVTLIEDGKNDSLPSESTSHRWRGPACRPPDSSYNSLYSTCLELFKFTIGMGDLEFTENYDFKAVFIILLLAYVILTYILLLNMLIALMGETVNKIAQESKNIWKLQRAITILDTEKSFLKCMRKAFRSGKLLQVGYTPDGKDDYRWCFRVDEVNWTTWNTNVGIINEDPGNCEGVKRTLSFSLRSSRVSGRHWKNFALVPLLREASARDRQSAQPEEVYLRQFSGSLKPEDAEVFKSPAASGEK
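Cells expressing TRPV1 were dye-loaded with Fluo-8 and read kinetically: 10 s baseline, 3 min after compound (agonist portion), then 2 min after EC20 capsaicin (allosteric enhancer portion). Calcium-bound dye fluorescence at 480/520 nm.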
gsp ag: activates gsp, the McCune-Albright syndrome mutation; gsp mutant cells, cAMP HTRF, 30 min; control for the full effect not named in the record; Potency, µM (series often up to 76.9 µM), for inactives: at the highest dose activation (cAMP increase), actives largely listed as activators; actives 0.13% (n = 340,000); AID 624287; active = well fitted activation curve with a large enough effect; inconclusive = small, poorly fitted or top-dose-only effect, or another doubt; inactive = no such curve, though single readings can be large or run the other way; cell line not stated here;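 also: phosphodiesterase inhibitor Ro 20-1724 added with compounds to block cAMP breakdown; potency is read from the fitted curve at half-maximal effect; nearly all actives have a fitted effect of over 60% in size; about a fifth of the inactives were tested at one dose only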
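Cells stably selected in G418 were plated at 2000/well, grown 16-24 hr, then given compounds in DMSO with the PDE inhibitor […] (300 uM solution added) for 30 min at 37C; cAMP was read by HTRF.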
Menin MLL FP FL: inhibitors of human menin-MLL interaction, wild-type MLL peptide. Fluorescence polarization, fluorescein-MLL peptide displacement from menin. FP activity change, % at 61.4 µM. 290,000 tested, under 10 active. AID 1766; inconclusive = falling polarisation curve, or a change in total fluorescence; inactive = total fluorescence flat and polarisation flat or rising; no compound was filed as active; the % refers to the polarisation; negative = inhibition;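 also: % of control where 0% means no effect; inhibitors lower the polarisation; unlabelled MLL peptide was the positive control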
gsp antagonist: gsp mutant antagonism; actives 0.4% (n = 340,000); gsp-mutant cells, cAMP HTRF, 30 min; control for the full effect not named in the record; Potency, µM (highest dose often 76.9 µM), for inactives: top-dose activity change, negative = inhibition, usual class: inhibitors; active = falling curve of any shape with a large fitted effect; inconclusive = falling curve, mostly with a smaller effect; inactive = flat or rising curve; cell line not stated here;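 also: intracellular cAMP measured with PDE inhibitor Ro 20-1724 present during compound exposure; potency is read from the fitted curve at half-maximal effect; % is scaled to controls: 0 for no effect and ±100 for the full control effect; nearly all actives have a fitted effect of over 65% in size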
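Cells in G418 medium, seeded 16-24 h, 37C; buffer exchange to DPBS + 1 mM CaCl2, 0.5 mM MgCl2, 0.05% BSA; cpds in DMSO + […] (300 uM stock), 30 min 37C; HTRF cAMP detection.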
Sfp inh: Sfp phosphopantetheinyl transferase inhibition; Q9F4F7; actives 3.5% (n = 310,000); Potency, µM, for inactives: max response, negative = inhibition, hits mostly inhibitors; Biochemical Sfp PPTase activity, qHTS; active = well fitted inhibition curve with a large enough effect; inconclusive = small, poorly fitted or top-dose-only effect, or another doubt; inactive = no such curve, though single readings can be large or run the other way;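 also: the enzyme is Sfp with the accession as filed and its product quenches rhodamine fluorescence; potency is read from the fitted curve at half-maximal effect; 0% = enzyme reaction without inhibitor and -100% = no enzyme wells; top concentration of the series not given in the record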
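Sfp 15 nM + cpd, 15 min RT; start w/ rhodamine-CoA 5 uM, BHQ-2-YbbR 12.5 uM (final); 50 mM Hepes pH 7.6, 10 mM MgCl2, 0.01% NP-40, 0.01% BSA; read 525/598 nm at 0 and 30 min.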
CtBP-E1A blk: blocks the CtBP interaction with E1A | actives 0.49% (n = 340,000) | AlphaScreen GST-E1A/His-CtBP binding, 1536-well; hits give low values; control for the full effect not named in the record | AID 651724 | activity change, % (concentration not given with the values); in the data active means activity change below about -65%; inconclusive means about -30% to -65%; inactive means above about -30%; also: % is scaled to controls: 0 for no effect and ±100 for the full control effect
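Homogeneous bead-based format: GST-tagged E1A captured on glutathione donor beads, His-tagged CtBP on nickel acceptor beads; compounds precede bead addition by 2 h at 37 °C.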
ClpP mod: qHTS Assay for Activators of ClpP; purified B. subtilis ClpP, FRET peptide cleavage, 20 min; actives 1.9% (n = 340,000); Potency, µM (doses to about 57.5 µM), without a hit: at the highest dose activity change, negative = active; active = well fitted falling curve with a large enough effect; inconclusive = small, poorly fitted or top-dose-only effect; inactive = no such curve, though single readings can be large or run the other way; also: potency is read from the fitted curve at half-maximal effect; the source files actives as falling curves though it sought activators and does not explain the sign; nearly all actives have a fitted effect of over 65% in size; many hits overshoot -100%
Target sequence (P80244 whole entry, looked up): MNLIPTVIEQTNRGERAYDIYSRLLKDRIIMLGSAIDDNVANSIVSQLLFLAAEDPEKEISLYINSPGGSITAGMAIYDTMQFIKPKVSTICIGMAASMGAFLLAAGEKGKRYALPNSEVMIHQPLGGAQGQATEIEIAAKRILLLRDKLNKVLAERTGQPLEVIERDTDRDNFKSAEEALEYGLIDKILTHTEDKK
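Buffer: 100 mM Tris/HCl pH8, 100 mM KCl, 0.05% low protease BSA, 2.5% glycerol, 0.01% Tween-20. ClpP 10 microg/mL final; 20 min RT; delta FRET normalized to ADEP and DMSO controls.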
* = called active by the depositor; u = inconclusive; x = not tested or not shown; & = joins results of further samples; [ ] = another dose, or the depositor's remark.

structure,TRPV1 potentiator,gsp ag,Menin MLL FP FL,gsp antagonist,Sfp inh,CtBP-E1A blk,ClpP mod
COc1ccc(NC(=O)C2CCC(N3C(=O)C4C5C=CC(C5)C4C3=O)CC2)cc1 (stereo not given),5,28%,0.5,4%,17%,4,-1.4%
CCCC(C1=C(O)CC(C)(C)CC1=O)C1C(=O)CC(C)(C)CC1=O (stereo not given),-1,0%,-0.9,-11%,-29%,0,-0.2%
COc1cc(OC)c(/C=N/NC(=O)c2ccncc2)c(OC)c1,-8,10%[15.4 µM],2.0,-5%,-11%,2,-0.6%
CCSc1nnc(NC(=O)c2cccc(S(=O)(=O)N(C)c3ccccc3)c2)s1,-5,-4%[15.4 µM],6.8,-5%,5%,5,-6.5%
COc1ccc(C(C#N)N2N=C(c3ccccc3)CC2c2ccccc2)cc1OC (stereo not given),-16,-64%[inhibitor],-0.7,2%,-7%,12,u
Cc1[nH]c(=O)[nH]c(=O)c1S(=O)(=O)NCCc1ccc(S(N)(=O)=O)cc1,-6,9%,3.0,-8%,14%,-8,-0.8%
O=C(Nc1ccc(CSc2ccccc2)cc1)c1ccc(CN2CCOCC2)cc1,-9,16%,6.2,-17%,-14%,-3,0.9%
O=C(CN1CCCCCCC1)Nc1cccc(Cl)c1Cl,-10,2%,0.1,-4%,8%,11,0.5%
COc1cc2nc(NC(=O)c3ccc(Cl)cc3)sc(=O)c2cc1OC,-6,16%[15.4 µM],-15,1%,-25%,9,-0.3%
C[C@H]1CN([C@@H](C)CO)C(=O)c2cc(Br)cnc2O[C@H]1CN(C)C(=O)Cc1ccccn1,x,1%,x,x,x,5,1.7%
CC1=NN(C(N)=S)C(=O)C1N=Nc1cccc2ccccc12 (stereo not given),6,x,-0.6,x,-1%,x,x
O=C(Nc1nnc(CC(c2ccccc2)c2ccccc2)s1)c1ccco1,1,-1%,2.7,5%,22%,0,-6.1%
Cn1cc(C(=O)C(=O)N2CCOCC2)c2ccccc21,-1,-39%[inhibitor],x,12%,3%,-9,-2.0%
CSc1nnc(NC(=O)c2ccc(C)c(S(=O)(=O)N3CCOCC3)c2)s1,2,-2%,2.5,14%,10%,-1,-0.4%
C/C(N)=C(/C#N)C(=O)COC(=O)C1CCC(C(C)(C)C)CC1 (stereo not given),-11,18%,-2.1,-24%,21%,2,0.5%
O=C(NCCCN1CCOCC1)c1ccccc1N1C(=O)[C@@H]2Cc3c([nH]c4ccccc34)C(c3cccc(Cl)c3)N2C1=O (stereo not given in full),11,x,-5.0,-13%,-12%,-1,0.0%
Cc1n[nH]c(C)c1S(=O)(=O)N1CCCC(C(=O)Nc2ccc(Br)cc2)C1 (stereo not given),-19,-3%,x,14%,16%,x,-14%&0.3%
O=C(c1ccccc1Cc1ccccc1)N1CCN(S(=O)(=O)c2ccccc2Br)CC1,-2,0%[15.4 µM],x,-21%,x,-3,0.9%
NC(=O)COC(=O)c1cccc(S(=O)(=O)N2CCCCC2)c1,-1,u,-3.0,-4%,21%,-12,x
CCOC(=O)C1=C(N)Oc2cc(O)ccc2C1c1ccc(C)cc1 (stereo not given),-12,-19%[15.4 µM],6.2,-7%,7%,7,-4.2%
COc1ccc(/C=C/C(=O)Nc2ccc(-n3nncc3-c3ccccc3)cc2)cc1OC,10,3%,-0.3,u,-3%,-2,u
Cc1ccc(NC(=O)c2ccc(C(=O)c3ccccc3)cc2)nc1,8,105%[15.4 µM],x,-9%,x,-1,x
CCCCCCCCNS(=O)(=O)CCNCc1ccco1,x,x,x,-2%,x,6,0.5%
c1cc2c(cc1C1=Nn3c(nnc3C3CCCCC3)SC1)OCO2,3,1%,0.6,-3%,-12%,-7,-1.8%
O=C1c2ccccc2C(=O)N1CCCCN(C(=O)c1ccc([N+](=O)[O-])cc1)c1ccc(Cl)cc1,19,-8%,2.8,1%,9%,-15,-0.5%
CCCCN(C(=O)CN1C(=O)C2CCCCC2C1=O)c1c(N)n(CCC)c(=O)[nH]c1=O (stereo not given),3,2%[15.4 µM],x,4%,x,3,-1.6%
O=C(Cc1ccccc1)N1CCC(c2nc3ccccc3[nH]2)CC1,0,-26%,2.0,1%,9%,0,0.5%
CCOC(=O)C(C)(C)N(Cc1cccc(C)c1)S(=O)(=O)c1ccc(Cl)c([N+](=O)[O-])c1,0,-7%,-2.5,u,-9%,13,-2.6%
CCCCC(=O)Nc1cc(OCC)c(NC(=O)c2ccccc2[N+](=O)[O-])cc1OCC,2,-19%,2.6,6%,-8%,12,-8.6%
COc1ccccc1CNC(=O)COC(=O)/C=C/c1cccs1,6,7%[15.4 µM],4.7,-16%,-7%,0,x

Whole records, quoted from the list.
Cc1n[nH]c(C)c1S(=O)(=O)N1CCCC(C(=O)Nc2ccc(Br)cc2)C1 (stereo not given) is entered as TRPV1 potentiator: -19; gsp ag: -3%; Menin MLL FP FL: x; gsp antagonist: 14%; Sfp inh: 16%; CtBP-E1A blk: x; ClpP mod: -14%&0.3%
c1cc2c(cc1C1=Nn3c(nnc3C3CCCCC3)SC1)OCO2 is entered as TRPV1 potentiator: 3; gsp ag: 1%; Menin MLL FP FL: 0.6; gsp antagonist: -3%; Sfp inh: -12%; CtBP-E1A blk: -7; ClpP mod: -1.8%

Carrying on:
structure,TRPV1 potentiator,gsp ag,Menin MLL FP FL,gsp antagonist,Sfp inh,CtBP-E1A blk,ClpP mod
CN(C)CC(O)COc1cccc(OCC(O)CN(C)C)c1 (stereo not given),-6,-4%[15.4 µM],0.1,-2%,9%,-2,-1.3%
COc1cc(-c2noc(C)c2C#CC2(N)CCCCC2)cc(OC)c1OC,-9,2%,-6.3,-1%,-14%,-2,-6.4%&-2.6%
O=S(=O)(c1ccc(NC(=S)N/N=C/c2cccc(Oc3ccccc3)c2)cc1)N1CCOCC1,0,7%[15.4 µM],-7.4,-21%,35%[activator],-7,x
CCOc1ccc(NC(=O)CN(C)C(=O)c2cc(S(=O)(=O)N3CCCCC3)ccc2Cl)cc1OCC,0,4%[15.4 µM],x,-4%,x,-14,-0.2%
COc1ccccc1Nc1ncnc2c1c(C)c(C)n2CCCN(C)C,-9,32%,-13,0%,-1%,-7,-3.4%
O=C(Oc1cccc2c(=O)[nH]ccc12)c1ccccc1,-6,21%,1.2,-3%,-14%,1,4.7%
COc1ccc(N2CCN(Cc3cc(=O)oc4c3ccc3ccccc34)CC2)cc1,6,x,2.0,x,9%,x,x
Cc1oc(-c2cccs2)nc1CN1CCC(c2ccccc2)CC1,-2,-4%,-0.6,13%,9%,-4,-17%
Cc1cc(OCC(=O)OCC(=O)Nc2cccnc2Cl)ccc1Cl,-14,u,x,14%,x,0,-0.5%
CCOc1ccc2nc(NC(=O)CSc3cn[nH]n3)sc2c1,-5,16%[15.4 µM],-0.4,-36%,-5%,7,-4.5%
Cc1cccc(NC(=O)c2ccc(CN3CCN(Cc4ccccc4)CC3)cc2)c1,-14,4%[15.4 µM],-0.1,x,15%,-14,x
COc1ccc(NC(=O)CC2C(=O)N(C)C(=S)N2Cc2ccncc2)cc1 (stereo not given),-17,-6%[15.4 µM],2.5,17%,15%,-9,x
COc1cc(/C=N/N=C2/C(=O)Nc3ccccc32)cc(OC)c1O,18,2%,0.7,-6%,-18%,5,0.9%
c1ccc(Cn2nnnc2C(c2ccccc2)N2CCN(c3nc4ccccc4s3)CC2)cc1 (stereo not given),13,-6%,6.8,-2%,11%,2,-3.1%
COc1ccc(N2C(=O)CSC2c2ccc3c(c2)OCO3)c(OC)c1 (stereo not given),4,5%,-5.9,3%,4%,4,3.7%
Cc1ccc(N2C(=O)CC(C)CC2=O)cc1,21,11%[15.4 µM],3.0,11%,24%,-3,-0.7%
CCOC(=O)C1=CNS(=O)(=O)NC1c1ccc(C(=O)OC)cc1 (stereo not given),x,x,x,9%,x,6,-2.4%
COC(=O)C1=CN(c2cc(C)cc(C)c2)C=C(C(=O)OC)C1c1ccc(OC)c(O)c1,-14,9%,-2.9,-11%,-18%,-8,x
O=C(c1ccc(F)cc1)N1CCN(c2ccc([N+](=O)[O-])c(N3CCCCC3)c2)CC1,-7,-17%,-0.9,-1%,1%,-21,0.0%
CCOC(=O)c1nn(-c2ccccc2)c2nnc(Cc3ccccc3)c(=O)n12,8,15%[15.4 µM],-4.2,8%,5%,-3,-2.6%
Cc1cc(NS(=O)(=O)c2ccc(NC(=O)c3ccc([N+](=O)[O-])c(Cl)c3)cc2)no1,10,-10%,x,-13%,3%,-12,-19%
CC(C)(C)c1ccc(-c2n[nH]c(=S)n2Cc2ccccc2)cc1,19,-9%[15.4 µM],7.1,-17%,13%,-3,x
CCOC(=O)C1(C(=O)OCC)C(C(=O)c2ccccc2)C1c1ccccc1 (stereo not given),x,9%,x,-25%,x,34,x
CCCCNC(=O)C1CCCN1C(=O)NC1CCCCC1 (stereo not given),9,-2%,0.8,7%,22%,3,0.8%
Cc1cc(C(=O)Nc2ccc(F)cc2C)n(-c2ccccc2)n1,17,-12%,3.5,9%,-1%,7,1.1%
CCOC(=O)c1c(NC(C)=O)sc2c(O)cccc12,-4,-13%,0.9,3%,3%,7,0.7%
COc1ccc(N=C/C=C2\C=C(c3ccccc3)OC(C)(C)O2)cc1,-2,3%,12,-7%,79µM*,-21,-6.1%
CC1CC(C)CN(C(=O)c2ccncc2)C1 (stereo not given),6,-66%[inhibitor],-0.8,15%,12%,7,-0.5%
